Source: PubChem BioAssay
RGS16-Gao: modulates binding between human RGS16 and Galphao. AID 1441. O15492+P09471. actives 0.38% (n = 220,000). binding response (% of control), % at 10 µM. bead-based flow cytometry RGS16-Galphao binding, fluorescence; actives lie on both sides;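 active means below 25% or above 175%, edge rows of some plates excepted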;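 further: Galphao activated by GDP with aluminum fluoride before binding; 100% = wells without compound and 0% = beads without RGS; some results beyond the cut were filed as inactive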
Target sequence (O15492 whole entry, looked up): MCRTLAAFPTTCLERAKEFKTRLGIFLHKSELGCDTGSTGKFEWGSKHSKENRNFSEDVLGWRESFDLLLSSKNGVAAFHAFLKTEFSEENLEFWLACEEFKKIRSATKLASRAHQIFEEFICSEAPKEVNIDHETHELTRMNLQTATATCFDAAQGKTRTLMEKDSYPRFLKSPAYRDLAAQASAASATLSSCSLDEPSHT
Target sequence (P09471 whole entry, looked up): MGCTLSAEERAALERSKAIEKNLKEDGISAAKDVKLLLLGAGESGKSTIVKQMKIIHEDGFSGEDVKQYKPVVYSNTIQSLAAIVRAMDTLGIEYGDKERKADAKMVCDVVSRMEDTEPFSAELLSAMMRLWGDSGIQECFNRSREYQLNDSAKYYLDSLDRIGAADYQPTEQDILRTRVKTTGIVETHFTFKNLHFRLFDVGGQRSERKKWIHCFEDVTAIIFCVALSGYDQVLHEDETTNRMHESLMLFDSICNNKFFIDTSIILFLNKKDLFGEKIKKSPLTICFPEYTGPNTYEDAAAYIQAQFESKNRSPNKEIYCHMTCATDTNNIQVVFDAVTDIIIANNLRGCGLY
GALR2 agonist: GALR2 (human) receptor agonism | actives 0.48% (n = 140,000) | activation, %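 (tested at 5 µM)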 | GALR2-expressing cells, agonist activation read-out;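 active means above mean plus 3 SD of all compounds, about 5% in these data, not always enough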;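 further: 0% = vehicle buffer wells and 100% = reference agonist at full effect; tested in CHO reporter cells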
Target sequence (O43603 whole entry, looked up): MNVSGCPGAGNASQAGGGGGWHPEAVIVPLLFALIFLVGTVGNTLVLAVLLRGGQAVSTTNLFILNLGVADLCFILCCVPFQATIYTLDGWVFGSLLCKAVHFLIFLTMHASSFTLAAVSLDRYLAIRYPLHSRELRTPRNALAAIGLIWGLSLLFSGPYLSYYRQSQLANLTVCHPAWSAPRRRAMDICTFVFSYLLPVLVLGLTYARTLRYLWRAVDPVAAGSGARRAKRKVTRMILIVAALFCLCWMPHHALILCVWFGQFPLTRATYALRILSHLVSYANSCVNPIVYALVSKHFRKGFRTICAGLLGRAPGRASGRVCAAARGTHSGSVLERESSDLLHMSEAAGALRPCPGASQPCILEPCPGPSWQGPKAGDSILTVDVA
Insulin prom inh: TRM-6 insulin promoter activity inhibition; TRM-6 cells (human fetal islet line), insulin promoter-eGFP reporter, imaging; reporter expression induced with tamoxifen; inhibition, % at 2 µM; actives 0.9% (n = 130,000);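 active means inhibition above the mean plus 3 SD, with well images judged a real hit on visual review, cut at about 60% in these data, passing the limit was not always enough; inconclusive means inhibition over the cutoff but images rejected on review; inactive means inhibition not above the cutoff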
PKD1 kinase inh: inhibitors of human PKD1 kinase. Q15139. PKD1 kinase fluorescence polarization assay. inhibition, %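 (about 10 µM by stock and volumes)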. actives 0.056% (n = 200,000);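 active means inhibition of 50% or more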;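 further: controls were vehicle for no effect and a reference inhibitor for full effect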
HSV augment: HSV replication enhancement; HSV replication augmentation in cells, fold increase; maximum fold increase; actives 0.005% (n = 220,000);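 active means peak rise of 1.5-fold or more in the series; inconclusive means self-fluorescent or not available for retest; tested in PC3 cells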;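 further: first round at 10 µM; read as green reporter fluorescence; hits show the peak of a series up to 25 µM; 1 = signal of infected wells without compound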
Insulin prom inh cell count: second read-out of Insulin prom inh, no call of its own (marks repeat the call); normalized cell count, %; measured here: cell count, toxicity; reference of the scale not given here;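 cells exposed to compound for 48 h; stained nuclei by imaging scaled within each plate; lower means fewer cells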
HSV augment primary fold: recorded beside HSV augment, whose call it bears; fold increase; compound at 10 µM; measured here: primary screen fold increase 10 uM; tested in PC3 cells;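 GFP signal in the first replicate; 1 = infected wells without compound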
The depositor's hits bear a star; i = inactive; ? = inconclusive; . = no result given.

compound | RGS16-Gao | HSV augment primary fold | PKD1 kinase inh | HSV augment | Insulin prom inh cell count | Insulin prom inh | GALR2 agonist
CC1CCN(CCOCCOc2ccc(Cl)cc2Br)CC1 | 103 | 0.82 | -12 | i | 126 | 26 | -1.3
Cc1ccc(NC(=S)NC2CCCC2)cc1C | 102 | 0.9 | 8 | i | . | . | -1.1
Cc1ccc(S(=O)(=O)N(C)C)cc1NC(=O)CCc1ccccc1 | 102 | 1 | . | i | . | . | .
CC1(C)C=Cc2cc3ccc(=O)oc3cc2O1 | 102 | 0.61 | . | i | . | . | .
Cc1cccc(N2CCN(Cc3nc(-c4cccc(Oc5ccccc5)c4)oc3C)CC2)n1 | 109 | 0.93 | 0 | i | 116 | -9 | .
O=C(NNc1cc(Cl)cc(Cl)c1)C1CCC1 | 105 | 1.1 | . | i | . | . | .
C=CCn1c(SCCN2C(=O)c3ccccc3C2=O)nc2scc(-c3ccccc3)c2c1=O | 104 | 0.71 | 11 | i | . | . | -2.8
CS(=O)(=O)N1N=C(c2ccccc2)CC1c1ccc2nccnc2c1 (stereo unspecified) | 61 | 0.99 | 1 | i | 87 | 34 | -0.2
O=S(=O)(c1ccc2ccccc2c1)N1CCCCC1 | 103 | 0.89 | -13 | i | 65 | -5 | -2.0
COc1ccc(/C=N/NC(=O)C(=O)N2CCN(c3ccccc3OC)CC2)cc1 | 102 | 1.4 | -9 | i | 81 | 7 | -0.8
O=C(O)C1C2C=CC(C2)C1C(=O)NCCCc1ccccc1 (stereo unspecified) | 39 | 0.96 | -6 | i | 135 | 23 | -3.2
CCOC(=O)c1c(NC(=O)C(C)Sc2c[nH]c3ccccc23)sc2c1CCC2 (stereo unspecified) | 107 | 0.97 | 0 | i | 136 | 35 | 1.5
Cc1cc(C)cc(NC(=O)C(Nc2ccccc2)c2ccccc2)c1 (stereo unspecified) | 110 | 0.92 | -2 | i | 1 | -79 | -1.6
Cc1ccc(NC(=S)NCC23C=CC(O2)C2C(=O)N(c4ccc(C)cc4)C(=O)C23)cc1 (stereo unspecified) | 101 | 0.91 | -6 | i | 56 | 58 | -1.9
CCC(c1nnnn1CCc1ccccc1)N(Cc1ccco1)Cc1cc2c(C)ccc(C)c2[nH]c1=O (stereo unspecified) | 111 | . | -7 | ? | 141 | -32 | 0.1
COc1ccc(CN=C(Nc2ccccc2)SC2CC(=O)NC2=O)cc1 (stereo unspecified) | 101 | 0.95 | 0 | i | 91 | -21 | .
CCC(CC)C(=O)N1CCN(c2cccc(C)c2C)CC1 | 106 | . | 1 | . | 78 | -92 | -1.2
Cc1[nH]n(-c2ccc([N+](=O)[O-])cc2)c(=O)c1/C=N/N1CCOCC1 | 104 | 0.86 | 2 | i | . | . | .
O=C(C1=C[C@@H](C2CC2)C[C@@H](OCCCCO)O1)N1CCN(Cc2ccc3c(c2)OCO3)CC1 | 108 | 0.71 | 5 | i | . | . | .
O=C(CSc1nnc(-c2ccc(Cl)cc2)n1Cc1ccco1)Nc1ccc2c(c1)OCCO2 | 91 | 0.86 | 5 | i | 113 | 13 | -2.2
O=C(NC1CCN(C(=O)N2c3ccccc3Sc3ccccc32)CC1)c1ccccc1Cl | 98 | 1.1 | -6 | i | . | . | -1.2
COc1ccc(-c2nnn(CC(=O)N(Cc3cccs3)C(C)C(=O)NC3CCCC3)n2)cc1OC (stereo unspecified) | 112 | 0.6 | -4 | i | 61 | -36 | -1.5
CCCCCCCCc1nc(SC(C)C(=O)O)n[nH]1 (stereo unspecified) | 106 | 0.89 | -1 | i | 43 | -255 | .
CCNC(=S)N1CCN(Cc2ccc3c(c2)OCO3)CC1 | 108 | 0.94 | -4 | i | . | . | .
CC(C)OC(=O)C(C#N)c1nc2ccccc2nc1N1CCCC1 (stereo unspecified) | 96 | 0.8 | -9 | i | . | . | -0.8

More compounds:
compound | RGS16-Gao | HSV augment primary fold | PKD1 kinase inh | HSV augment | Insulin prom inh cell count | Insulin prom inh | GALR2 agonist
CC(Sc1nc2ccccc2c(=O)[nH]1)C(=O)O (stereo unspecified) | 102 | 1 | -16 | i | 137 | -13 | -2.0
CN(CC(O)Cn1cnc2c1c(=O)n(C)c(=O)n2C)c1ccccc1 (stereo unspecified) | 113 | 0.95 | -7 | i | . | . | .
Cc1cc(O)ccc1N=Cc1c(C(F)(F)F)[nH][nH]c1=O | 102 | 1 | 6 | i | 120 | 6 | .
CCOc1ccc(C2C(C#N)=C(N)Oc3cc(C)n(CCN(C)C)c(=O)c32)cc1OCC (stereo unspecified) | 152 | 0.53 | -15 | i | 107 | 31 | -2.2
Nc1nc(N2CCN(c3ccc(F)cc3)CC2)n[nH]1 | 101 | 0.94 | -3 | i | 106 | 3 | .
Cc1cc(NC(=O)CN2CCN(c3cccc(Cl)c3)CC2)no1 | 95 | 0.94 | 1 | i | . | . | .
CN(NC(=O)C(C)(C)C)c1nc(-c2ccccc2)nnc1C(F)(F)F | 103 | 0.93 | 0 | i | 101 | -136 | 9.8
CC(C)(C)c1csc(NNC(=O)c2ccc(Cl)cc2)n1 | 102 | 0.87 | . | i | . | . | .
CCOC(=O)c1c(NC(C)=O)sc2c(OC)c(Br)ccc12 | 106 | 1 | -4 | i | 113 | -14 | -3.4
CCC(C)C(NC(=O)C(CC(C)C)NC(=O)C(CO)NC(=O)C1CCC(=O)N1)C(=O)OC (stereo unspecified) | 99 | 1 | 4 | i | . | . | .
Cn1cc([C@@H]2C[C@H]3CN(Cc4cccc(Cl)c4)C(=O)[C@]34CCCN24)c2ccccc21 | 96 | 1 | 3 | i | . | . | .
COc1ccc(/C=N/n2c(-c3cc(C)[nH]n3)n[nH]c2=S)cc1OC | 96 | 1.1 | . | i | . | . | .
CCOC(=O)C1=NNC(C(=O)c2ccc(Cl)cc2)C1c1ccc(OC)cc1 (stereo unspecified) | 98 | 1 | -3 | i | . | . | .
CNC(=O)c1ccccc1S(=O)(=O)c1ccccc1C#N | 101 | 0.63 | 8 | i | 152 | -17 | -1.3
CC1CCN(S(=O)(=O)c2cc(Br)cc(C(=O)NC3=NCCS3)c2)CC1 | 106 | 0.89 | -4 | i | . | . | 0.0
Cc1ccc(S(=O)(=O)N/N=C2/CCCCC2C2CCCCC2)cc1[N+](=O)[O-] (stereo unspecified) | 98 | 1.1 | -14 | i | . | . | -1.7
NC(=O)NC(CC(=O)NCCCc1ccccc1)c1ccc(Cl)cc1 (stereo unspecified) | 100 | 0.92 | . | i | . | . | .
CCOc1ccc2nc(NC(=O)CC3Oc4ccccc4NC3=O)sc2c1 (stereo unspecified) | 104 | 0.98 | . | i | . | . | .
COC(=O)c1sccc1Oc1c(Cl)cccc1[N+](=O)[O-] | 107 | 1.1 | 3 | i | 43 | -63 | .
CCOc1ccc(N(CC(=O)Nc2ccc(C)cc2)S(=O)(=O)c2c(C)[nH]c(=O)[nH]c2=O)cc1 | 100 | 0.98 | . | i | . | . | .
Cc1cccc(Cn2c(=O)c3c(nc4n3CCCN4Cc3ccccc3)n(C)c2=O)c1 | 64 | 0.98 | 1 | i | 96 | 31 | -0.7
CCOC(=O)c1c(C)sc2c1N(C(=O)CCl)c1cc(Cl)ccc1S2 | 97 | 0.94 | -10 | i | 16 | 3 | -0.7
Cc1ccc(C)n1-c1ccc(C(=O)N/N=C/c2ccncc2)cc1 | 102 | 1.1 | 0 | i | . | . | .
Nc1nn2c(-c3ccccc3)cc(=O)[nH]c2c1N=Nc1ccc(O)cc1 | 105 | 1.1 | 4 | i | 119 | 29 | .
CCOC(=O)N1CCN(C(=O)c2csc3c2CCCCC3)CC1 | 109 | 0.88 | -1 | i | 103 | 59 | -2.4

2 entries drawn at random from the list so far, as already listed:
compound | RGS16-Gao | HSV augment primary fold | PKD1 kinase inh | HSV augment | Insulin prom inh cell count | Insulin prom inh | GALR2 agonist
CCOc1ccc2nc(NC(=O)CC3Oc4ccccc4NC3=O)sc2c1 (stereo unspecified) | 104 | 0.98 | . | i | . | . | .
Nc1nc(N2CCN(c3ccc(F)cc3)CC2)n[nH]1 | 101 | 0.94 | -3 | i | 106 | 3 | .

(listing goes on)
compound | RGS16-Gao | HSV augment primary fold | PKD1 kinase inh | HSV augment | Insulin prom inh cell count | Insulin prom inh | GALR2 agonist
CC(C(=O)NC1C(=O)N2C(C(=O)O)=C(CSc3nnnn3C)CSC12)n1cc(Cl)cn1 (stereo unspecified) | 108 | 0.96 | -10 | i | 74 | 21 | .
CC(=O)NCCc1csc(-c2ccccc2)n1 | 93 | 1 | -6 | i | 81 | -25 | -1.3
CCOc1nc(C#N)nc(N2CCCCC2)n1 | 101 | . | -6 | . | . | . | -1.3
COCc1nc2sc3c(c2c(=O)[nH]1)CCCC3 | 105 | 0.83 | -4 | i | 128 | 53 | -2.0
N#C/C(=C(/O)c1cc2ccccc2o1)c1nc2ccccc2s1 | 101 | 1 | . | i | . | . | .
Cc1ccc(NC(=S)NCc2ccccn2)cc1 | 102 | 1.1 | 1 | i | 110 | -10 | -0.9
CC(C)N(C(=O)Cc1ccccc1[N+](=O)[O-])C(C)C | 104 | 1 | -5 | i | . | . | .
Cc1cc(NC(=O)CSc2n[nH]c(-c3cccs3)n2)no1 | 98 | 1.1 | -1 | i | 61 | 0 | -2.6
O=C(NCCCNC1CCCCC1)c1ccc(/C=N/O)nc1 | 101 | 0.88 | 2 | i | 103 | -13 | 0.3
COCCNC(=O)Cn1ncc2ccsc2c1=O | 101 | 0.98 | -10 | i | . | . | -3.8
CCC(c1n[nH]c(=S)n1-c1ccccc1)N(C)C (stereo unspecified) | 99 | 1.2 | 5 | i | . | . | -1.6
Cc1ccccc1C(=O)Nc1c(C(=O)N2CCCC2)cnn1-c1ccccc1 | 101 | 1.3 | -7 | i | 108 | 19 | -1.4
CCCCc1nnc(NC(=O)CSc2nc(C)cc(=O)[nH]2)s1 | 101 | 0.98 | -3 | i | 111 | 47 | -0.8
FC(F)(F)c1ccncc1-c1nnnn1-c1ccc(Cl)cc1 | 101 | 0.92 | . | i | . | . | .
Clc1ccc(/C=N/Nc2nc(Cl)nc3ccccc23)cc1 | 91 | 1.1 | 24 | i | 135 | -3 | -0.9
O=C(Cc1cccs1)N1CCN(c2ccc([N+](=O)[O-])cc2)CC1 | 96 | 0.89 | -1 | i | 101 | 57 | .
Cc1ccc([N+](=O)[O-])cc1S(=O)(=O)Nc1ccc(N2CCOCC2)cc1 | 100 | 0.87 | -2 | i | . | . | .
COc1ccc(N2CCN(C(=O)CN3CCN(C(c4ccccc4)c4ccccc4)CC3)CC2)cc1 | 98 | 0.98 | 3 | i | . | . | 0.6
CSCCC(NS(=O)(=O)c1ccc(Cl)cc1)C(=O)OCC(=O)c1c(C)[nH]c2ccccc12 (stereo unspecified) | 92 | 0.68 | 3 | i | 83 | -77 | 0.0

Of the compounds above, eleven have a thiophene ring, fused or not:
compound | RGS16-Gao | HSV augment primary fold | PKD1 kinase inh | HSV augment | Insulin prom inh cell count | Insulin prom inh | GALR2 agonist
C=CCn1c(SCCN2C(=O)c3ccccc3C2=O)nc2scc(-c3ccccc3)c2c1=O | 104 | 0.71 | 11 | i | . | . | -2.8
CCOC(=O)c1c(NC(=O)C(C)Sc2c[nH]c3ccccc23)sc2c1CCC2 (stereo unspecified) | 107 | 0.97 | 0 | i | 136 | 35 | 1.5
COc1ccc(-c2nnn(CC(=O)N(Cc3cccs3)C(C)C(=O)NC3CCCC3)n2)cc1OC (stereo unspecified) | 112 | 0.6 | -4 | i | 61 | -36 | -1.5
CCOC(=O)c1c(NC(C)=O)sc2c(OC)c(Br)ccc12 | 106 | 1 | -4 | i | 113 | -14 | -3.4
COC(=O)c1sccc1Oc1c(Cl)cccc1[N+](=O)[O-] | 107 | 1.1 | 3 | i | 43 | -63 | .
CCOC(=O)c1c(C)sc2c1N(C(=O)CCl)c1cc(Cl)ccc1S2 | 97 | 0.94 | -10 | i | 16 | 3 | -0.7
CCOC(=O)N1CCN(C(=O)c2csc3c2CCCCC3)CC1 | 109 | 0.88 | -1 | i | 103 | 59 | -2.4
COCc1nc2sc3c(c2c(=O)[nH]1)CCCC3 | 105 | 0.83 | -4 | i | 128 | 53 | -2.0
Cc1cc(NC(=O)CSc2n[nH]c(-c3cccs3)n2)no1 | 98 | 1.1 | -1 | i | 61 | 0 | -2.6
COCCNC(=O)Cn1ncc2ccsc2c1=O | 101 | 0.98 | -10 | i | . | . | -3.8
O=C(Cc1cccs1)N1CCN(c2ccc([N+](=O)[O-])cc2)CC1 | 96 | 0.89 | -1 | i | 101 | 57 | .

This is a random part of the collection (roughly 1.1% active in at least one column).
